# PrP UTR inh = inhibition of PrP 5' UTR reporter expression. inhibition, % (test concentration not listed). cell-based PrP 5' UTR mRNA reporter, plate reader. hit rate 0.35% among 340,000;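 active means every replicate at 50% or more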;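 further: 0 = median of the neutral control wells; tested in H4 reporter cells; numbers are from one replicate; inactives centre near -14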
# BJeLR lethal = BJeLR cell viability loss; BJeLR (HRASV12) viability, CellTiter-Glo ATP luminescence, 48 h; reference of the scale not given here; inhibition, % (concentration not given with the values); hit rate 0.17% among 300,000;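 active means replicate mean above 50%; inconclusive means above 50% but judged a plate artefact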;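 further: 50 nL library stock added to about 25 µL; numbers are from one replicate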
# RN4220 kill = kills Staphylococcus aureus RN4220 | inhibition, % (no concentration beside the values) | AID 1259311 | hit rate 0.33% among 330,000 | S. aureus RN4220 growth, OD600, 16 h;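 active means z-score of -3 or lower and OD600 up to 0.18 on both plates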;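 further: plate controls were untreated cells for no effect and reference antibiotic for full effect; stock transfer was 100 nL into about 80 µL; one replicate is shown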
# Sa ugtP lethal = kills S. aureus RN4220 lacking UgtP; S. aureus RN4220 ugtP deletion, OD600 growth, 16 h; some inactives read as strong as hits; growth inhibition, % (no concentration beside the values); hit rate 0.54% among 330,000;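 active means z-score under -3 and OD600 up to 0.15 on both plates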;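 further: plate controls were untreated wells for no effect and antibiotic for full effect; wells of about 80 µL received 100 nL stock; the first replicate is given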
# Mtb hypoxia rep = inhibitors of hypoxia-regulated fluorescent reporter in Mycobacterium tuberculosis; M. tuberculosis hypoxia-regulated fluorescent reporter, fluorescence; hit rate 0.1% among 300,000; AID 1159583; fluorescence inhibition, % (concentration not given with the values);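 active means 35 to 45% if threefold the growth effect, above 45% if 1.5-fold the growth effect; inactive means the rest, general growth blockers included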;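 further: wells of about 50 µL received 100 nL stock; 0% = vehicle wells and 100% = reference inhibitor wells; whole bacteria with a GFP reporter of the hypoxia response; strong numbers were not always called active; many hits fall short of the cut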
# Autofluor counter = counter-screen for toxin protease inhibitors: compound fluorescence; compound autofluorescence counterscreen, microsphere flow cytometry; active compounds read high; fluorescence intensity (no concentration beside the values); hit rate 3.1% among 360,000; AID 624483;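 active means at least 3 SD above the mean of all compounds, about 16000 in these data; inconclusive means too few beads counted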;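 further: 100 nL of 1 mM stock went into each well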
# Mtb hypoxia rep growth = further read-out of Mtb hypoxia rep, marked with its call; growth inhibition, %; measured here: M. tuberculosis growth (absorbance);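 0% = vehicle and 100% = reference antibiotic; read after six days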
# Numbers without * were called inactive; ? = inconclusive; / = no result given. No enrichment for hits. Share with any hit: about 4%.
SMILES,PrP UTR inh,BJeLR lethal,RN4220 kill,Sa ugtP lethal,Mtb hypoxia rep,Mtb hypoxia rep growth,Autofluor counter
O=c1ccnc(SCCc2ccccc2)[nH]1,0,-3,0.9,0,7,1,3816
CCOc1ccc(N/C=C/C(=O)c2ccc(OC)c(OC)c2)cc1,-39,-2,4.0,-2,6,4,4246
O=C(Nc1c(F)cc(F)cc1Br)c1cc2nc(C(F)F)cc(C(F)F)n2n1,-13,-6,1.3,7,/,/,6412
COc1ccccc1OC(C)C(=O)Nc1ccccc1C(=O)NCc1cccnc1 (configuration not stated),-13,-4,5.4,13,7,-7,4432
CCCCNC(=O)CCCn1c(=S)[nH]c2cc3c(cc2c1=O)OCO3,-29,-1,-0.7,-6,-13,6,20235*
CC1(C)CC(NC(=S)NC(=O)c2cc(Br)ccc2Cl)CC(C)(C)N1,-10,/,1.0,5,2,5,3912
COc1ccc(CC(C)=NNC(=S)Nc2ccccc2F)cc1,/,/,-0.8,-1,4,4,/
Cc1ccc(S(=O)(=O)N(C)C)cc1NC(=O)COC(=O)C1CC(=O)N(c2ccc3c(c2)OCCO3)C1 (configuration not stated),-17,1,-0.7,5,-5,-1,?
NC(=O)NC(CC(=O)NCCCc1ccccc1)c1ccccc1Cl (configuration not stated),-11,5,4.0,2,12,3,4795
CC(=O)ON=C(N)c1cnn2c(C(F)(F)F)cc(C(F)(F)F)nc12,/,/,0.3,1,-9,-8,/
Cc1c(C(=O)N2CCCC2)sc(NC(=O)c2cccc(Cl)c2)c1C#N,-26,12,9.5,14,6,-7,8599
CCCN(C(=O)Cc1ccc(S(=O)(=O)N2CCOCC2)s1)c1c(N)n(Cc2ccccc2)c(=O)[nH]c1=O,-12,1,1.5,-1,7,-7,5873
COc1cccc(S(=O)(=O)Nc2cccc(C(=O)N3CCCCCC3)c2)c1,-17,1,4.0,-1,13,-8,10551
CCOC(=O)c1c(C)[nH]c(C(=O)OCc2ccccc2F)c1C,-94,4,5.8,-11,12,12,3552
COc1ccc(CCNC(=O)C(C)OC(=O)c2cccs2)cc1OC (configuration not stated),7,-3,1.4,10,-1,0,4643
COc1ccc(C(=O)COC(=O)CCCn2c(=O)oc3ccccc32)cc1,-9,1,-3.2,-2,-3,1,3790
Nc1cc(=O)[nH]c(SCC(=O)N2CCC(Cc3ccccc3)CC2)n1,3,/,0.8,2,-2,11,3737
COc1cccc(NC(=O)CN(C)C(=O)CC2Sc3ccccc3NC2=O)c1 (configuration not stated),-14,/,1.2,3,10,3,3101
O=C1CC(=Nc2ccccc2)NN1c1ccccc1,-9,-15,-12,-7,2,3,9572
CCc1ccc(OCC(=O)NN=C(C)c2ccc(OC(F)F)cc2)cc1,/,/,11,0,14,13,/
Cc1c(C(=O)N2CCCCC2)c(S(=O)(=O)N(C)Cc2ccco2)c(C)n1C,-26,-5,3.6,11,18,12,5389
Cc1ncc(CN2CCCC(C(=O)Nc3ccc(-c4cccc(F)c4)cc3)C2)cn1 (configuration not stated),-6,-1,2.2,-5,9,-1,5520
Cc1nc(Nc2nc(-c3ccccc3)cc(=O)[nH]2)nc2ccccc12,-25,-7,19,-6,5,-3,4667
COc1cccc(NC(=O)COC(=O)C2CC2)c1,-7,/,1.0,2,0,3,/
NNC(=O)CN1C(c2cccc(Cl)c2)=Nc2ccc(Br)cc2C1c1ccccc1 (configuration not stated),-15,-7,-3.5,-6,12,4,6182
O=C(CSc1nnc(Cc2ccc3c(c2)OCO3)n1C1CCCCC1)NC1CCCC1,-17,-7,5.7,-5,-3,10,9668
CC(C)(C)c1ccc(S(=O)(=O)O/N=C2/CCCCC2c2ccc([N+](=O)[O-])cc2[N+](=O)[O-])cc1 (configuration not stated),-19,8,/,/,/,/,4636
O=C(CSCc1ccc(F)cc1)Nc1ccccc1,/,1,2.9,-2,0,9,8047
O=C(NCc1ccccc1)c1ccc(NC(=O)c2ccco2)cc1,-15,2,-0.1,3,0,1,5211
COc1ccccc1NC(=O)c1ccc(NS(=O)(=O)c2c(C)noc2C)cc1,-14,4,-6.1,10,/,/,2395
O=C(Cn1c(-c2ccco2)nc2ccccc21)N1CCCCC1,-7,-3,10,8,6,1,4151
Cc1ccc2oc(C(=O)N(C)Cc3ccc(C)o3)c(C)c2c1,-32,11,3.8,4,1,-5,5166
Cc1ccc2c(CC(=O)Nc3ccc(N4CCN(C)CC4)cc3C)coc2c1,-43,4,5.3,-16,6,13,5303
O=C(COC(=O)c1cccc(O)c1)Nc1ccc(N2CCOCC2)cc1,-21,/,2.6,-2,10,-1,4072
Cc1cc(Nc2cccc(Cl)c2)n2ncnc2n1,-10,-6,2.4,7,/,/,6196
COC(=O)C1C(=O)C(C(=O)c2ccc([N+](=O)[O-])cc2)C(=O)CC1(C)C (configuration not stated),-18,-13,7.3,6,1,4,4659
O=C(C[n+]1ccc(C(=O)N/N=C/c2ccc(OCc3ccccc3)cc2)cc1)c1ccccc1,-22,5,/,/,/,/,5175
Clc1ccc(CO/N=C2\CCCc3nonc32)cc1,-14,-16,/,/,/,/,9493
CC1CCCN(C(c2ccccc2)c2sc3ncnn3c2O)C1 (configuration not stated),-3,4,-5.2,-1,9,9,4456
CCC(NS(=O)(=O)c1cccs1)c1ccc(C)cc1 (configuration not stated),-10,/,16,-3,13,2,/
COc1ccc(C(=O)N2CCN(S(=O)(=O)N3CCOCC3)CC2)cc1OC,2,-4,1.2,1,/,/,4901
CC(NC(=O)c1cccs1)c1ccccc1 (configuration not stated),-13,-2,3.0,9,/,/,3560
COc1ccc2cc(CN(Cc3ccco3)C(c3nnnn3C3CCCCC3)C(C)C)c(=O)[nH]c2c1 (configuration not stated),2,4,0.3,10,/,/,2253
O=C(CSc1nc2ccccc2s1)NN=Cc1cc([N+](=O)[O-])ccc1O,/,/,49,31,4,14,/
CCNS(=O)(=O)c1ccc(C(=O)Nc2ccccc2)cc1,-19,1,6.2,3,5,2,10820

# The list goes on, starting with the last 4 of the part before.
SMILES,PrP UTR inh,BJeLR lethal,RN4220 kill,Sa ugtP lethal,Mtb hypoxia rep,Mtb hypoxia rep growth,Autofluor counter
CC(NC(=O)c1cccs1)c1ccccc1 (configuration not stated),-13,-2,3.0,9,/,/,3560
COc1ccc2cc(CN(Cc3ccco3)C(c3nnnn3C3CCCCC3)C(C)C)c(=O)[nH]c2c1 (configuration not stated),2,4,0.3,10,/,/,2253
O=C(CSc1nc2ccccc2s1)NN=Cc1cc([N+](=O)[O-])ccc1O,/,/,49,31,4,14,/
CCNS(=O)(=O)c1ccc(C(=O)Nc2ccccc2)cc1,-19,1,6.2,3,5,2,10820
COc1cc(C)nc(N2CCCC(C(=O)NCC(C)C)C2)n1 (configuration not stated),-4,8,1.9,1,/,/,4200
Cc1ccsc1C(=O)C1CCCN(Cc2cccn2-c2ccc(Cl)cn2)C1 (configuration not stated),-26,23,-0.9,11,6,16,4679
Cc1ccc(CS(=O)(=O)CCC(=O)NCc2ccc3c(c2)OCO3)cc1,-22,-2,-5.6,-3,-1,-6,13076
Oc1ccc(Cl)cc1/C=N/c1nccs1,-44,7,/,/,/,/,10998
O=C(Cn1c(O)c(/C=C2\C=Nc3ccccc32)sc1=O)Nc1ccc2c(c1)OCO2,-16,-2,4.0,-2,7,-3,6558
CN(Cc1ccccc1)S(=O)(=O)c1ccc2[nH]cc(C(=O)NCC3CCCO3)c(=O)c2c1 (configuration not stated),/,/,-1.9,-2,-11,0,11181
O=C(/C=C/c1ccco1)NCC1(c2ccccc2)CCCC1,-4,2,0.5,-4,-1,10,2153
Cc1ccc2[nH]c(=O)c(C(c3nnnn3C3CCCC3)N3CCCc4ccccc43)cc2c1 (configuration not stated),-22,-13,12,-10,-3,5,10080
COc1ccc(S(=O)(=O)n2nc(-c3ccc(Cl)cc3)cc2N)cc1,-28,7,11,-4,12,7,3724
Cc1ccc(NC(=O)Cc2nnc(SCC(=O)NC3=NCCS3)n2C)cc1,-49,-4,-2.0,15,4,-3,5245
Brc1cccc(C=Nc2cccc3ncccc23)c1,-17,-7,4.0,1,1,5,5805
Cc1nn(C)c(C(=O)N/N=C/c2ccncc2)c1Cl,-16,8,/,/,/,/,6243
COc1cc(OC)cc(C(=O)NCC(=O)OC2CCOC2=O)c1 (configuration not stated),-40,-11,1.2,2,-1,1,9127
CC(=O)Nc1ccc(S(=O)(=O)Nc2nc3ccccc3nc2N2CCCC2)cc1,-3,2,5.2,-10,/,/,2701
Cc1ccc(S(=O)(=O)CCC(=O)Nc2cccc(S(=O)(=O)N3CCCCCC3)c2)cc1,-31,/,4.4,4,14,9,3821
CNC(=O)NCC12CC3CC(CC(C3)C1)C2,-8,2,4.6,2,19,11,10553
O=C(O)CNC(=O)c1ccccc1NC(=O)c1ccco1,-11,/,0.5,1,2,7,22742*
Cc1cc(C(=O)O)c(=O)[nH]c1C,8,-4,-1.0,1,2,-3,4312
O=C(Cn1c(-c2ccccc2)c[n+]2ccsc12)c1ccc([N+](=O)[O-])cc1,-33,3,9.0,5,7,17,2460
O=C(OCc1cnc(Cl)s1)c1cccc(Cl)c1Cl,-8,0,10,-2,5,12,2646
COc1ccc(S(=O)(=O)NCC(c2ccc3c(c2)OCO3)N2CCOCC2)cc1C (configuration not stated),5,4,5.0,5,-4,-11,6648
CCOc1ccc(NC(=O)c2ccc3snnc3c2)cc1,-23,-3,1.4,-2,/,/,2849
NC(=NC(=O)c1ccc(OC(F)(F)F)cc1)c1ccc(C(F)(F)F)cn1,-26,-12,4.5,2,17,9,4307
COC(C(=O)Nc1ccnn1C1CCN(Cc2ccc(C)s2)CC1)c1ccccc1 (configuration not stated),7,-4,0.6,1,5,-7,5749
Cc1ccc(S(=O)(=O)NNC2CC(=O)N(c3ccc(Br)cc3)C2=O)cc1 (configuration not stated),-20,1,5.0,8,18,0,2706
O=C(COc1ccc(F)cc1Cl)N(Cc1nnc(-c2ccccc2Cl)o1)C1CC1,-9,4,1.0,-1,5,-5,4584
c1ccc(Cn2cc(CNc3ccccc3)nn2)cc1,-25,1,3.1,1,-1,8,4178
Cc1ccc(/C=C2\SC(=S)N(Cc3ccccc3)C2=O)o1,-26,/,0.9,0,-5,5,4741
O=C(COC(=O)Cn1cnc2ccccc21)Nc1cc(S(=O)(=O)N2CCOCC2)ccc1Cl,-11,7,1.4,-9,7,2,4147
CNC(=O)C1OC(n2cnc3c(NCc4cccc(I)c4)ncnc32)C(O)C1O (configuration not stated),/,/,3.9,-1,-2,0,/
CCOc1ccc(N2CC(C(=O)N3CCN(c4ccccn4)CC3)CC2=O)cc1 (configuration not stated),6,-3,0.8,7,1,0,4841
CCCSc1nc2ccsc2c(=O)n1CC,-17,9,6.3,5,6,-1,4355
CCC1=C(OC(=O)N(CC)CC)N2C(=O)OC(=NCC(=O)OC)[C@]2(Cc2ccccc2)[C@H]2C1=CC[C@H]1C(=O)N(C)C(=O)[C@H]12,4,-5,/,/,/,/,3890
CC(NC(=O)Nc1cccc(Cl)c1)C(c1cccs1)N1CCCC1 (configuration not stated),-15,20,-0.2,1,1,-3,2800
Cc1[nH]n(-c2ccccc2)c(=O)c1C=NNC(=O)C1COc2ccccc2O1 (configuration not stated),/,/,22,4,11,4,/
C=CCOc1c(Br)cc(/C=C2/NC(=S)N(C(C)=O)C2=O)cc1OC,-3,0,/,/,/,/,2023
COc1ccc(-c2nc(NC(=O)CSCCO)sc2C)cc1,-28,8,0.6,2,5,9,4536
C#CCOCCOCCOCCNc1nc(N2CCN(C(=O)C(C)n3cc(CCCN=C(N)N)nn3)CC2)nc(N2CCN(C(=O)C(C)n3cc(CCCN=C(N)N)nn3)CC2)n1 (configuration not stated),/,/,3.3,3,11,9,/
Cc1cccc(-n2cc(CN3CCN(Cc4nccn4C)CC3)c(-c3cccc(F)c3)n2)c1,-10,3,-0.9,-6,0,-5,1973
COC(=O)c1c(NC(=O)CSc2nnnn2-c2ccccc2)sc2c1CCCC2,-10,0,-3.1,8,/,/,2319
C/C(=C\c1ccccc1)C(=O)n1nnc2ccccc21,-8,4,2.6,-1,2,4,17498*

# Screens from PubChem BioAssay.
